UCH37 inh = human UCH37 deubiquitinating enzyme inhibition; Q9Y5K5; purified proteasome/UCH37, Ub-AMC cleavage fluorescence; inhibition, % (concentration not given with the values); 330,000 compounds, 0.33% hits;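 active = mean of two replicates above 20%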;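 note: 0% = compound-free wells with enzyme and 100% = wells lacking proteasome; stock transfer was 100 nL into about 20 µL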
Target sequence (Q9Y5K5 whole entry, looked up): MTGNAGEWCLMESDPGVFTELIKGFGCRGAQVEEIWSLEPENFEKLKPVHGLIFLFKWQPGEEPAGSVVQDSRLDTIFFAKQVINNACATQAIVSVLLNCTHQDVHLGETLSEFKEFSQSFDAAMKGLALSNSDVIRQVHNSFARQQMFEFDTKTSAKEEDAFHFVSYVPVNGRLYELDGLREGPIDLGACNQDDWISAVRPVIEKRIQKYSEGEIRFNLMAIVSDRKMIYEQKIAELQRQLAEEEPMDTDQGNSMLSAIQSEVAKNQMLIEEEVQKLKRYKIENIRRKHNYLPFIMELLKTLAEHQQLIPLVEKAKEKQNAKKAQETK
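Assay system: Proteasome-bound UCH37. Buffer or medium: pH 7.4 Tris-HCl (50 mM) with ovalbumin, ATP-MgCl2, DTT. Incubation: 30 min preincubation with enzyme, 25 min cleavage at room temperature. Measured by: fluorescence, ex 355 nm, em 460 nm. Read-out basis: percent inhibition. Control set: wells without proteasome as full block, compound-free enzyme plus substrate as uninhibited.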
E coli growth = E. coli growth inhibition | Escherichia coli growth, OD600, 23 h; hits give low values | OD600 absorbance (no concentration beside the values) | 330,000 compounds, 0.21% hits | AID 1053175;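 active = OD600 absorbance below the run mean of sample wells minus 3.6 SD, in any replicate, cut at about 0.56 in these data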;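 note: stock transfer was 300 nL into about 60 µL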
* marks the source's active call; other numbers are inactive results. Not all compounds are listed; rates above refer to the full screens.

SMILES | UCH37 inh | E coli growth
Cn1c(-c2ccccc2)c(C=NNC(=O)c2ccc(O)cc2)c2ccccc21 | -34.1 | 0.632
CC(=NNC(=O)c1csc2ccccc12)c1ccc(O)cc1 | 2.0 | 0.718
O=C(CN1CCCC1)NN=Cc1ccc(-c2cccc(Cl)c2)o1 | 4.1 | 0.67
Cc1n[nH]c(C)c1CCC(=O)NN=Cc1cccc([N+](=O)[O-])c1 | 1.9 | 0.65
CC(=NNC(=O)c1ccccc1O)c1cccs1 | 12.5 | 0.644
O=C(CNc1ccccc1F)NN=CC1CC=CCC1 (stereo not given) | -0.5 | 0.73
O=C(CN1CCCN(S(=O)(=O)c2ccc(Br)cc2)CC1)Nc1ccc2cn[nH]c2c1 | 6.0 | 0.737
COC(=O)NN=Cc1ccc(-c2cccc(Cl)c2)o1 | -9.9 | 0.642
Cc1ccccc1NN=Cc1sc(=O)n(Cc2cccc(C(=O)O)c2)c1Cl | 14.4 | 0.691
O=C(CNc1ccccc1Cl)NN=C1CCCc2ccccc21 | 2.3 | 0.699
COc1ccc(Cl)cc1NC(=O)CC(C)=NNC(=O)c1ccc(O)cc1 | 2.6 | 0.629
Cc1c(C=NNC(=O)c2cccs2)c2ccccc2n1Cc1ccccc1Cl | -146.7 | 0.715
COc1cc(C=NN2C(C)CCCC2C)cc(Br)c1O (stereo not given) | 8.1 | 0.647
CCOc1cc(C=Nn2cnnc2)c(Br)cc1O | 7.0 | 0.676
Cn1c(=O)n(C)c2cc(C=NNC(=S)NCc3ccccc3)ccc21 | 6.5 | 0.699
COc1ccc(C=NS(=O)(=O)CCc2ccccc2)c(OC)c1 | 1.5 | 0.686
COc1ccc2ccccc2c1C=NNC(=O)c1nnn(-c2nonc2N)c1CN(C)C | -22.3 | 0.641
COc1ccc(C(=O)NN=Cc2ccccn2)cc1OC | 2.8 | 0.706
O=C(CC(=O)NC1CCCCC1)NN=Cc1ccccc1[N+](=O)[O-] | 5.1 | 0.668
CCOc1cc(C=NNC(N)=O)cc(Br)c1OCC(=O)Nc1cccc2ccccc12 | -0.2 | 0.779
CC(=O)c1sc(NN=Cc2cccc(Br)c2)nc1C | -12.6 | 0.651
COc1ccc(Cc2nnc(NN=Cc3ccc(O)cc3O)[nH]c2=O)cc1OC | 11.4 | 0.624
Cc1cccc(C(=O)ON=C(N)c2cccc([N+](=O)[O-])c2)c1 | 1.5 | 0.712
CCC12CN3CCN(CC(C3)C1=NNC(=O)Nc1ccccc1)C2 | 1.0 | 0.62
COc1ccc(OC)c(C=NNC(=O)c2nnn(-c3nonc3N)c2-c2cccs2)c1 | -139.0 | 0.668
Cc1ccc(-n2[nH]c(C)c(C=NNC(=O)c3ccc(O)cc3O)c2=O)cc1 | -124.4 | 0.652
COc1ccc(CCCC(=O)NN=Cc2ccccc2OC)cc1 | 3.7 | 0.714
CC1(C)SC(=S)N(N=Cc2ccc(O)cc2)C1N(O)C(=O)Nc1ccc([N+](=O)[O-])cc1 (stereo not given) | 0.5 | 0.66
COc1ccc(C(=O)NN=Cc2sc(N3CCOCC3)nc2-c2ccccc2)cc1OC | 3.3 | 0.722
Cc1c(C(=O)NN=CC(C)C)[nH]c2c([N+](=O)[O-])cccc12 | 3.8 | 0.689
Cc1cc([N+](=O)[O-])nn1Cc1ccc(C(=O)NN=Cc2ccc(F)cc2)cc1 | 4.7 | 0.67
COc1cccc(C(=O)NCC(=O)NN=Cc2cn[nH]c2-c2ccccc2)c1 | 1.1 | 0.715
Cc1ccc(OCC(=O)NN=Cc2cn(Cc3ccccc3)c3ccccc23)cc1C | -0.1 | 0.726
C=CCNC(=O)CC(=O)NN=Cc1ccccc1F | 6.6 | 0.682
O=C(NN=Cc1cccc(O)c1)C(=O)N1CCCCCC1 | 5.0 | 0.691
O=C(NN=Cc1cccc(Br)c1)c1ccc(Br)cc1 | 1.4 | 0.662
CC(CC1CC(C)(C)OC1=O)=NNC(N)=S (stereo not given) | 2.6 | 0.615
CC(NC(=O)c1ccccc1)C(=O)NN=Cc1ccco1 (stereo not given) | 2.1 | 0.686
O=C(NN=Cc1cc(O)ccc1[N+](=O)[O-])c1ccc2c(c1)OCCO2 | 4.0 | 0.637
O=C(NN=Cc1ccccn1)c1cccc(S(=O)(=O)Nc2ccccc2Cl)c1 | 1.6 | 0.605
O=C(CNC(=O)c1ccc([N+](=O)[O-])cc1)NN=Cc1c[nH]c2ccccc12 | 1.8 | 0.672
Cc1cccc(N=Cc2c(O)c3ccccc3oc2=O)n1 | -2.8 | 0.746
COc1cc(C=NNC(=O)CCC(=O)Nc2ccc(C)cc2)ccc1O | 0.8 | 0.693
COc1ccc(C(=O)Oc2cc(C=NNC(N)=S)ccc2OC)cc1 | 7.0 | 0.706
COc1ccc2c(c1)-c1nc(N=Cc3ccc(O)cc3)sc1CC2 | 2.1 | 0.694
CCOC(=O)NN=C(C)c1ccc(-n2cnnn2)cc1 | 1.2 | 0.72
Cn1cccc1C=NNC(=O)c1sc2ccccc2c1Cl | -4.3 | 0.744
COCc1cc(C=NNC(=O)COc2ccccc2)ccc1OC | 2.9 | 0.615
O=C(NN=Cc1cccnc1)c1ccccc1[N+](=O)[O-] | -0.7 | 0.722
Cc1ccc(C=NNc2nnc(Cc3ccccc3)c(=O)[nH]2)o1 | 3.0 | 0.752
COc1cc(C=NN2CCCCC2)cc([N+](=O)[O-])c1O | 11.2 | 0.632
CC(=NNC(=O)CCc1ccccc1)c1ccc(Br)cc1 | 3.8 | 0.746
CCOC(=O)C(=NNc1ccc(C)cc1)S(=O)(=O)c1ccc(Cl)cc1 | 6.9 | 0.68
COc1ccc(C(C)=NNC(=S)NCCc2ccccc2)c(O)c1 | -2.3 | 0.679
CCN(CC)c1ccc(C(=O)NN=C(C)c2ccc(O)cc2)cc1 | 9.6 | 0.704
Cc1nc(NN=Cc2ccc(Br)cc2)cc(N2CCOCC2)n1 | 3.3 | 0.684
Cc1nc2c(C)cccc2cc1C(=O)NN=Cc1ccc(N(C)C)cc1 | 4.5 | 0.708
CNC(=S)NN=Cc1c(C)cccc1Cl | 1.1 | 0.661
COC(=O)Oc1ccc(C=NNC(=O)CN(c2ccccc2Cl)S(C)(=O)=O)cc1OC | 5.0 | 0.676
COc1cc(C=Nn2nnnc2N)ccc1OCC#N | -3.7 | 0.705

(more compounds)
SMILES | UCH37 inh | E coli growth
COc1ccc(C=NN(C)C2=NCCN2)c(OC)c1OC | 1.0 | 0.649
CC1CC(=NNC(=O)CCc2ccc(S(=O)(=O)N3CCOCC3)cc2)CC(C)(C)C1 (stereo not given) | 0.9 | 0.723
CC(=NNS(=O)(=O)c1ccccc1)c1ccccc1 | 0.7 | 0.735
COc1cccc(C=NNC(=O)c2cc(C34CC5CC(CC(C5)C3)C4)[nH]n2)c1 | 0.4 | 0.723
O=C(O)c1ccc(C=NN2CCN(Cc3ccc(Cl)cc3)CC2)cc1 | 1.8 | 0.67
O=C(NN=Cc1ccc(O)cc1)c1cc[n+](Cc2ccccc2)cc1 | 5.2 | 0.712
Cc1ccc(-c2n[nH]c(=S)n2N=Cc2c(C)nn(-c3ccccc3)c2C)cc1 | -0.2 | 0.714
COc1ccc(-c2[nH]ncc2C=NNC(=O)c2ccc(Br)cc2)c(OC)c1 | -8.4 | 0.638
CC(C)c1ccc(C=c2sc3nc(-c4ccncc4)nn3c2=O)cc1 | -2.3 | 0.691
CN=C1SC(CC(=O)Nc2ccc(F)cc2F)C(=O)N1N=Cc1ccc(OC(F)F)c(OC)c1 (stereo not given) | 10.4 | 0.648
S=c1[nH]nc(-c2cccnc2)n1N=Cc1ccco1 | 2.4 | 0.726
Cc1cc(C)c[n+](-c2[nH]c(=O)sc2C=NN=C(N)[S-])c1 | 17.5 | 0.626
Nc1c(C(=O)NN=Cc2ccccc2)cnn1-c1ccccc1 | 3.2 | 0.656
O=C(NN=Cc1ccc(O)c2ccccc12)c1cccnc1 | 4.0 | 0.635
O=C(CCCCCCCCC(=O)NN=Cc1ccco1)NN=Cc1ccco1 | 0.4 | 0.691
CCCn1c(N=Cc2ccc3c(c2)OCO3)nc2ccccc21 | 3.4 | 0.674
COc1ccc(Br)cc1C=NNC(=O)c1nc(-c2ccccc2)n2c1CCCCC2 | 3.7 | 0.743
Oc1c(Cl)cc(Cl)cc1C=NNc1ncc(Br)cn1 | 5.6 | 0.743
Cn1cccc1C=NNC(=O)c1cccs1 | 14.3 | 0.716
CCN(CC)C(=O)C1CCCN(c2ccc([N+](=O)[O-])cc2C=NNC(=O)c2ccc([N+](=O)[O-])cc2)C1 (stereo not given) | 4.0 | 0.671
Cl/C(C=Nn1cnnc1)=C/c1ccccc1 | 3.3 | 0.65
Clc1ccc(CN2CCN(N=Cc3ccco3)CC2)cc1 | 1.6 | 0.674
O=c1c(=Cc2ccc(O)cc2)sc2n1CCCN=2 | -0.3 | 0.647
COc1cccc(-c2c(C(=O)NN=Cc3sccc3C)nnn2-c2nonc2N)c1 | -0.5 | 0.688
Oc1ccc(C=Nn2c3ccccc3c3ccccc32)cc1 | -1.6 | 0.671
COc1ccc(C=Nn2c(SC)nnc(C(C)(C)C)c2=O)c(OC)c1 | -3.3 | 0.724
CC(=NNc1ccc([N+](=O)[O-])cc1)c1cccc(N)c1 | 6.1 | 0.642
Cc1ccc(C)c(OCC(=O)NN=Cc2ccsc2)c1 | 0.3 | 0.722
COc1cc(C=NNc2ccccn2)ccc1O | 9.7 | 0.631
CCC(=NNC(=O)CNc1ccc(Cl)cc1C)c1ccccc1 | 4.1 | 0.744
CCC(=NNC(=O)c1ccc2c(c1)OCO2)c1ccccc1O | -2.9 | 0.624
CN(C)c1nc(NCc2ccccc2)nc(NN=Cc2cccc(Br)c2)n1 | -0.5 | 0.69
O=C(NN=C/C(Cl)=C/c1ccccc1)c1ccccn1 | 5.5 | 0.681
O=[N+]([O-])c1ccccc1NN=Cc1cc2ccccc2nc1Cl | 4.9 | 0.753
O=C(NN=CC1CC=CCC1)c1ccc(Cl)cc1O (stereo not given) | -50.2 | 0.656
O=C(NN=Cc1ccc2c(c1)OCO2)c1ccc(Br)o1 | -16.4 | 0.697
Cc1cc(SCC(=O)NN=Cc2cccnc2)nc2c(C)cccc12 | 2.3 | 0.709
CC(Oc1ccccc1[N+](=O)[O-])C(=O)NN=Cc1ccoc1 (stereo not given) | 3.0 | 0.665
COc1ccc(C(=O)NCC(=O)NN=Cc2cccnc2)cc1OC | 0.8 | 0.586
Clc1ccccc1-c1nc(NN=Cc2cccnc2)c2ccccc2n1 | 6.2 | 0.761
Cc1cc(C(=O)NN=Cc2cn[nH]c2-c2ccccc2)cs1 | 3.6 | 0.725
C(=NNc1nc(Nc2ccccc2)nc(Nc2ccccc2)n1)c1ccncc1 | 4.0 | 0.688
O=C(Cn1cncn1)NN=Cc1cccc(Cl)c1 | 6.7 | 0.683
Cc1ccc2nc(C)c(C(=O)NN=Cc3cccs3)n2c1 | 9.8 | 0.668
O=C(NN=Cc1ccoc1)c1ccc(Cl)cc1 | 3.3 | 0.686
Cc1cccc(C=NNC(=O)c2csnn2)c1 | 3.7 | 0.756
CC(CC(=O)Nc1cc(Cl)ccc1Cl)=NNC(=O)COc1cccc(C)c1 | -2.2 | 0.675
COC(=O)c1cccc(Cn2c(Cl)c(C=NNC(=O)c3ccccc3Cl)sc2=O)c1 | 5.2 | 0.718
NC(CC(=O)Nc1ccc(F)cc1)=NO | -28.2 | 0.687
O=C(O)c1ccc(NN=Cc2ccc(-c3ccc(Cl)cc3Cl)o2)cc1 | -55.5 | 0.671
Nc1ccc(C(=O)NN=Cc2cn(Cc3ccccc3F)c3ccccc23)cc1 | -3.9 | 0.671
Cc1cc(C)cc(-n2c(C)cc(C=NNC(=O)CN(c3c(C)cccc3C)S(C)(=O)=O)c2C)c1 | 2.1 | 0.82
Cn1ccsc1=NS(=O)(=O)c1ccc(Br)cc1 | 0.7 | 0.648
C(=NNc1nc(-c2ccccc2)cs1)c1ccncc1 | 2.4 | 0.677
Fc1ccc(Br)cc1C=NN1CCN(c2ccccc2)CC1 | 0.4 | 0.678

Of the compounds above, 15 contain bromine:
SMILES | UCH37 inh | E coli growth
O=C(CN1CCCN(S(=O)(=O)c2ccc(Br)cc2)CC1)Nc1ccc2cn[nH]c2c1 | 6.0 | 0.737
COc1cc(C=NN2C(C)CCCC2C)cc(Br)c1O (stereo not given) | 8.1 | 0.647
CCOc1cc(C=Nn2cnnc2)c(Br)cc1O | 7.0 | 0.676
CCOc1cc(C=NNC(N)=O)cc(Br)c1OCC(=O)Nc1cccc2ccccc12 | -0.2 | 0.779
CC(=O)c1sc(NN=Cc2cccc(Br)c2)nc1C | -12.6 | 0.651
O=C(NN=Cc1cccc(Br)c1)c1ccc(Br)cc1 | 1.4 | 0.662
CC(=NNC(=O)CCc1ccccc1)c1ccc(Br)cc1 | 3.8 | 0.746
Cc1nc(NN=Cc2ccc(Br)cc2)cc(N2CCOCC2)n1 | 3.3 | 0.684
COc1ccc(-c2[nH]ncc2C=NNC(=O)c2ccc(Br)cc2)c(OC)c1 | -8.4 | 0.638
COc1ccc(Br)cc1C=NNC(=O)c1nc(-c2ccccc2)n2c1CCCCC2 | 3.7 | 0.743
Oc1c(Cl)cc(Cl)cc1C=NNc1ncc(Br)cn1 | 5.6 | 0.743
CN(C)c1nc(NCc2ccccc2)nc(NN=Cc2cccc(Br)c2)n1 | -0.5 | 0.69
O=C(NN=Cc1ccc2c(c1)OCO2)c1ccc(Br)o1 | -16.4 | 0.697
Cn1ccsc1=NS(=O)(=O)c1ccc(Br)cc1 | 0.7 | 0.648
Fc1ccc(Br)cc1C=NN1CCN(c2ccccc2)CC1 | 0.4 | 0.678
